CBX7 AlphaScr – inhibitors of human CBX7 binding to H3K27me3 peptide | normalised signal (fraction of DMSO) (concentration not given with the values) | O95931 | AID 1224903 | AlphaScreen His6-CBX7 / biotin-H3K27me3 peptide binding; stronger effect = lower value | actives 1.1% (n = 66,000); in the data active means normalised signal below about 0.5;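 further: 100 nL library stock added to about 20 µL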
Target sequence (O95931 whole entry, looked up): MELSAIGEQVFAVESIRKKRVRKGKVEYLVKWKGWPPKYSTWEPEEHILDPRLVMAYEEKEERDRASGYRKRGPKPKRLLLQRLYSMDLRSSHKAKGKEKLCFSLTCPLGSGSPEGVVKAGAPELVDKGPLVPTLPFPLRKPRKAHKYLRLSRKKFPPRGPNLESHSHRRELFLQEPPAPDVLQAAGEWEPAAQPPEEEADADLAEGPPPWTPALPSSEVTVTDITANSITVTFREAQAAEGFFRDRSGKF
CBX7 AlphaScr z-score – further read-out of CBX7 AlphaScr, marked with its call; z-score; measured here: z-score of CBX7 signal; some inactives read as strong as hits; reference of the scale not given here;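 same signal on another scale; lower means less binding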
An asterisk follows results filed as active; & = joins results of further samples. Not all compounds are listed, so the mix of outcomes need not match the whole.

SMILES	CBX7 AlphaScr	CBX7 AlphaScr z-score
COc1ccc2[nH]c(C)c(CCNS(=O)(=O)c3cc(C)c(OC)cc3C)c2c1	0.89	-1.6
CC(=O)Nc1ccc(S(=O)(=O)N2CCN(c3cc(C)nc4ccccc34)CC2)cc1	0.86	-0.16
Cc1ccc(CNC(=O)c2cc3c(s2)CS(=O)(=O)C3)cc1	0.93	-1.3
Cc1ccc2cc(CCNC(=O)COc3ccccc3)c(=O)[nH]c2c1	0.9	-1.2
Cc1ccc(-c2nc(Nc3cccc(Cl)c3)c3ccccc3n2)cc1	1.1	2.3
Cc1[nH]nc2c1C(c1cccc(Br)c1)CC(=O)N2 (stereo not drawn)	1.2	1.9
CC(NC(=O)C1CCC(=O)N1Cc1ccccc1Cl)c1ccccc1 (stereo not drawn)	1	0.81
CCC1=Nc2cc(C(=O)NC3CCCc4ccccc43)ccc2Sc2ccc(Cl)cc21 (stereo not drawn)	0.94	-3.2
Cc1nc(Nc2ccc(S(=O)(=O)Nc3nccs3)cc2)sc1C(=O)Nc1ccccc1	0.98	-0.18
COc1ccc(CCNS(=O)(=O)c2ccc3c(c2)CCN3C(=O)CCC(=O)O)cc1OC	0.83	-2.7
CCOC(=O)c1c(NC(=O)c2ccccc2)sc(C(=O)N2CCCCC2)c1C	1	0.34
CC(=O)Nc1cccc(NC(=O)Nc2ccncc2)c1	1	0.63
O=C(NCc1cccc(Br)c1)Nc1cccs1	0.99	-0.6
COc1ccc(-n2nc(C(=O)Nc3ccc(Oc4ccccc4)cc3)c3ccccc3c2=O)cc1	0.95	-1.4
COc1ccc(Cc2nnc(SCC(=O)Nc3cccc(Cl)c3C)o2)cc1	0.94	-0.7

Next part (two carried over from the part before).
SMILES	CBX7 AlphaScr	CBX7 AlphaScr z-score
COc1ccc(-n2nc(C(=O)Nc3ccc(Oc4ccccc4)cc3)c3ccccc3c2=O)cc1	0.95	-1.4
COc1ccc(Cc2nnc(SCC(=O)Nc3cccc(Cl)c3C)o2)cc1	0.94	-0.7
COc1ccc(-c2cc3ccccc3n2CC(O)Cn2nc(C)cc2C)cc1 (stereo not drawn)	0.91	-1.8
COc1ccc(C(=O)NCCc2c[nH]c3ccc(OC)cc23)cc1	0.96	-0.35
CCCNC(=O)C1CCCN(c2nnc(-n3cccc3)s2)C1 (stereo not drawn)	1.1	3.7
CC(C)Sc1oc(-c2cccs2)nc1S(=O)(=O)c1ccc(Cl)cc1	1	0.05
COCC(=O)Nc1c(C(=O)Nc2cccc(F)c2)oc2ccccc12	1	0.56
CCCCN1CC(C(=O)NCCc2ccc(Cl)cc2)CC1=O (stereo not drawn)	1	0.4
O=C(Cn1nc(-c2ccccc2)c2cc(Cl)ccc21)NCc1cccs1	1	0.43
CN(CC(=O)NC1CCCCCCC1)S(=O)(=O)c1cnc[nH]1	1	0.38
CCOc1ccc(CCNC(=O)CN2C(=O)COc3ccccc32)cc1OCC	0.95	-1.7
Cc1ccccc1C(=O)Nc1nnc(-c2cccnc2)s1	1	0.34
CC(C)c1ccc(OCC(=O)Nc2ccc(-c3nc4ncccc4o3)cc2)cc1	1.1	0.65
Cc1ccc2c(c1)N(CCC(=O)NC1CC1)C(=O)C(C)O2 (stereo not drawn)	0.94	-0.74
COc1ccc(CN(C)CCc2ccccn2)cc1OC	0.47*	-4.2*
CCc1nc(NCC(C)C)c(C#N)c2c1CCCC2	1.1	0.14
CCCN(CCC)CCCNC(=O)c1cc(Nc2ccccc2OC)nc2ccccc12	1.2	2.6
Cc1onc(-c2ccccc2)c1C(=O)Nc1ccc(N=Nc2ccccc2)cc1	0.67	-3.3
Oc1ccc(Br)cc1/C=C/c1ccc2ccccc2n1	0.87	-1.5
COc1ccc(-c2nn(C)c3sc(C(=O)NCCc4ccc(Cl)cc4)cc23)cc1OC	0.96	-0.5
CCC1Oc2ccc(C)cc2N(CC(=O)N2CCN(c3ccc(F)cc3)CC2)C1=O (stereo not drawn)	1.1	1.6
CCOC(=O)c1cnc2c(C)cccc2c1Nc1ccc(Cl)cc1	1.2	2.2
COc1ccccc1NC(=O)c1sc2nc(-c3ccc(F)cc3)cn2c1C	0.94	-1.1
CC1CC(C)CN(c2nnc(NC(=O)c3cc(-c4ccc(Br)cc4)on3)s2)C1 (stereo not drawn)	0.72	-1.1
Cc1cccc(NC(=O)C2CCN(S(=O)(=O)c3ccc4c(c3)CCC(=O)N4)CC2)c1C	0.99	-0.15
COc1cccc2c(Nc3cccc(Cl)c3C)cc(C)nc12	1.1	0.98
Cc1oc(-c2ccc(Cl)cc2)nc1CSCC(=O)N1CCCCCC1	1.2	1.9
CCC(C)NC(=O)c1cnc(Nc2ccc(OC)cc2)c2ccccc12 (stereo not drawn)	1.1	1.2
CC(NC(=O)C(C)n1ncc2ccccc21)c1ccccc1 (stereo not drawn)	0.91	-1.7
Cc1ccc(-n2nc(C)c3c(C)c(CCC(=O)NCc4cccnc4)c(C)nc32)cc1	0.84	-1.2
CNS(=O)(=O)c1cc(-c2nnc(Nc3ccc(OC)cc3)c3ccccc23)ccc1C	0.94	-2.1
COc1ccccc1-n1c(C)nc2cc(C(=O)NCc3cccnc3)ccc21	0.96	-0.98

Next section; it opens with the 2 that closed the last part.
SMILES	CBX7 AlphaScr	CBX7 AlphaScr z-score
CNS(=O)(=O)c1cc(-c2nnc(Nc3ccc(OC)cc3)c3ccccc23)ccc1C	0.94	-2.1
COc1ccccc1-n1c(C)nc2cc(C(=O)NCc3cccnc3)ccc21	0.96	-0.98
CCOc1ccc(C(=O)Nc2ccc(-c3nc4ncccc4o3)cc2)cc1[N+](=O)[O-]	0.97	-0.65
O=c1c2ccccc2nc(/C=C/c2cn(Cc3ccccc3)c3ccccc23)n1CCCO	0.81	-5.3
O=C1CC(c2ccc(Cl)c(Cl)c2)c2cc3c(cc2N1)OCCO3 (stereo not drawn)	0.89	-0.85
CCCC(=O)Nc1ccc2oc(-c3ccc(Br)c(C)c3)nc2c1	1.1	0.76
COCCN1Cc2cccc(C(=O)Nc3cccc(-c4nc5ccccc5[nH]4)c3)c2C1=O	1.1	1.5
COc1ccc(-c2nc(CSCC(=O)NCc3ccc(Cl)cc3)c(C)o2)cc1	0.89	-5.1
CN1C(=O)CSc2ccc(NC(=O)Nc3cccnc3)cc21	0.98	-0.47
COc1ccc(-c2noc(CCC(=O)NCCCN3CCOCC3)n2)cc1	1.1	0.084
CCN(c1ccccc1)c1ncnc2c1cnn2-c1ccc(Cl)cc1	0.98	-0.056
CCOc1ccc(N2C(=O)CC(NCCc3ccc(Cl)cc3)C2=O)cc1 (stereo not drawn)	1.1	2
Fc1ccc(Nc2c(-c3ccccc3)nc3ccccn23)cc1	1	0.061
CCOC(CNC(=O)c1sc2ncn(CC(=O)N(CC)CC)c(=O)c2c1C)OCC	0.97	-1.2
Nc1nonc1C(=O)NCCNC(=O)c1cccc(Br)c1	1.1	0.7
Cc1ccn2c(-c3csc(Nc4ccccc4)n3)c(C)nc2c1	0.84	-1.8
CC(C)C[C@@H](C(=O)Nc1cc(F)ccc1F)N1Cc2ccccc2C1=O	1.2	3
COCCCNC(=O)c1ccc(Cn2c(=O)[nH]c3cc(OC)c(OC)cc3c2=O)cc1	1	0.45
Cc1ccccc1OCC(=O)Nc1ccc(Cl)c(-c2nc3ccccc3[nH]2)c1	1	0.077
O=C(NC1CCCCCC1)c1ccc(Cl)c(NC2=NC3CS(=O)(=O)CC3S2)c1 (stereo not drawn)	1.1	0.91
Cc1ccc(CNC(=O)CCn2nc(-c3ccccc3)ccc2=O)cc1	1	1.2
Cc1ccc(NC(=O)Cn2cnc3sc(C(=O)Nc4cc(F)ccc4C)c(C)c3c2=O)cc1Cl	1.2	1.9
COc1cc(-c2nc(-c3nonc3N)no2)cc(OC)c1OC	1	0.067
Cc1ccc(CCNC(=O)c2ccc(NC3=NC4CS(=O)(=O)CC4S3)cc2)cc1 (stereo not drawn)	0.89	-0.81
COc1cccc(-n2c(SCC(=O)Nc3nccs3)nnc2-c2c[nH]c3ccccc23)c1	0.96	-0.27
Cc1ccc(C)c(NC(=O)CSc2nnc(Cc3cc(=O)[nH]c(=O)[nH]3)n2-c2ccc(F)cc2)c1	0.9	-2.5
CCN(C(=O)CCc1nc(-c2ccc(C)cc2)no1)c1cc(C)ccc1C	1	0.012
O=C(c1c(-c2ccccc2)oc2ccc(O)cc12)N1CCCCC1	0.8	-0.81
Cc1ccc(N2C(=O)C(N3C(=O)c4ccccc4C3=O)C2c2ccc(F)cc2)cc1C (stereo not drawn)	1.1	2.2
NS(=O)(=O)c1ccc(Nc2nnc(-c3ccccc3)c3ccccc23)cc1	1&1	1.7&1.4
COc1ccccc1-c1cc(C(=O)Nc2cc(C)n(Cc3ccc(Cl)cc3)n2)no1	1	0.15
CCOC(=O)N1CCC(N2Cc3cccc(C(=O)N4CCC(Cc5ccccc5)CC4)c3C2=O)CC1	0.93	-0.55
Cc1ccc(C)c(-n2c(Cc3cc(=O)[nH]c(=O)[nH]3)nnc2SCC(=O)Nc2ccccc2)c1	1.1	0.44
CCCCN1C(=O)C(O)(CC(=O)c2ccccn2)c2ccccc21 (stereo not drawn)	0.96	-1.2
COc1ccc(-c2nc(Cc3c(F)cccc3Cl)no2)c(OC)c1	0.83	-1.9
CCCOc1ccc(C2C(=O)N(C3CCCCCC3)CC(=O)N2CCC2=CCCCC2)cc1OC (stereo not drawn)	0.77	-0.92
COc1cccc(-c2nn(C)c3sc(C(=O)N(C)C4CCCCC4)cc23)c1	0.96	-0.52
Cc1cc(C)c(C#N)c(Nc2ccc(Cl)cc2Cl)n1	1	-0.067
COc1ccc(CC(=O)NCC2(c3ccc(OC)c(OC)c3)CCOCC2)cc1	1	0.39
Cn1cc(CC(=O)Nc2ccc(F)c(Cl)c2)c2ccccc21	0.97	-0.71
CC(=O)NCCc1nc2ccccc2n1Cc1ccccc1C	0.84	-2.4
O=C(NCCCN1CCOCC1)c1ccc2c(c1)ncn2-c1ccc(F)c(F)c1	0.83	-2.1
N#Cc1ccc(-c2nc(Cc3ccccc3Cl)no2)cc1	1.3	3.4
CC(NC(=O)c1ccc(-c2nn(C)c(=O)c3ccccc23)cc1)c1ccccc1 (stereo not drawn)	1	0.57
Cc1nc2c(C(=O)NCC3CCCO3)cnn2c(C)c1Cc1ccccc1F (stereo not drawn)	1	-0.058
COc1ccc(OC)c2[nH]c(=O)c(CCNC(=O)Cc3cccc4ccccc34)cc12	0.96	-1.5
COc1ccc(C(=O)Nc2ccc3oc(-c4ccc(Cl)cc4Cl)nc3c2)cc1Br	1.1	2.7

Quoted from the listing:
`COc1ccc(C(=O)Nc2ccc3oc(-c4ccc(Cl)cc4Cl)nc3c2)cc1Br` in CBX7 AlphaScr z-score → 2.7
`CC(=O)NCCc1nc2ccccc2n1Cc1ccccc1C` in CBX7 AlphaScr → 0.84
`N#Cc1ccc(-c2nc(Cc3ccccc3Cl)no2)cc1` in CBX7 AlphaScr z-score → 3.4
`COc1ccc(CC(=O)NCC2(c3ccc(OC)c(OC)c3)CCOCC2)cc1` in CBX7 AlphaScr z-score → 0.39
`COc1ccc(OC)c2[nH]c(=O)c(CCNC(=O)Cc3cccc4ccccc34)cc12` in CBX7 AlphaScr z-score → -1.5
`CCCCN1C(=O)C(O)(CC(=O)c2ccccn2)c2ccccc21` (stereo not drawn) in CBX7 AlphaScr z-score → -1.2
`O=C(NCCCN1CCOCC1)c1ccc2c(c1)ncn2-c1ccc(F)c(F)c1` in CBX7 AlphaScr → 0.83

Continuation:
SMILES	CBX7 AlphaScr	CBX7 AlphaScr z-score
Cc1ccc(CNC(=O)c2oc3ccc(S(=O)(=O)N4CC(C)CC(C)C4)cc3c2C)cc1 (stereo not drawn)	1.1	0.76
CCOC(=O)c1ccc(NC(=O)CN(C)S(=O)(=O)c2ccc3nc(C)sc3c2)cc1	1.2	1.3
O=C(CCCn1c(=O)[nH]c2ccccc2c1=O)NC1CCN(Cc2ccccc2)CC1	1.2	0.63
CCOc1cc(-c2nc3sc4c(c3c(=O)[nH]2)CCCC4)ccc1OCc1ccccc1C#N	0.98	-0.44
CCC(C)NC(=O)CCC(=O)Nc1ccc2nc(N3CCN(CC)CC3)cc(C)c2c1 (stereo not drawn)	1.1	2.3
Cc1cc(C(F)(F)F)nc(NCCc2ccccc2)n1	1.4	3.6
CC(C)c1ccc(NC(=O)c2ccc(CNc3c(N4CCCCC4)c(=O)c3=O)cc2)cc1	0.93	-0.16
CCCN(C(=O)CCc1nc(-c2ccc(OC)cc2)no1)c1ccc(OCC)cc1	0.85	-2.1
CCOC(=O)c1cc(-c2ccccc2)n(CCC(=O)NC2CCCCCCC2)c1C	0.8	-2.1
CCCn1cc(C2CC(=O)N(c3ccc(OC)cc3)C2=O)c2ccccc21 (stereo not drawn)	0.97	-0.87
O=C1c2ccccc2C(=O)N1CCSc1ncnc2c1cnn2-c1ccccc1	1.1	2.2
c1ccc(CCNc2nc(-c3cccnc3)nc3ccccc23)cc1	0.78	-0.78
CC(C)c1ccc(NS(=O)(=O)c2ccc3[nH]cc(C(=O)N4CCC(C(N)=O)CC4)c(=O)c3c2)cc1	0.77	-4.3
O=C(O)CCc1[nH]c2ccccc2c1Sc1ccccc1	1	0.1
CCCN(CCC)C(=O)c1c[nH]c2ccc(S(=O)(=O)N(CC)c3ccc(F)cc3)cc2c1=O	1	0.11

3 compounds already listed, arranged by heavy-atom count, ascending.
SMILES	CBX7 AlphaScr	CBX7 AlphaScr z-score
O=C(O)CCc1[nH]c2ccccc2c1Sc1ccccc1	1	0.1
O=C(CCCn1c(=O)[nH]c2ccccc2c1=O)NC1CCN(Cc2ccccc2)CC1	1.2	0.63
CCOc1cc(-c2nc3sc4c(c3c(=O)[nH]2)CCCC4)ccc1OCc1ccccc1C#N	0.98	-0.44

Next section
SMILES	CBX7 AlphaScr	CBX7 AlphaScr z-score
Cc1ccc(C)c2[nH]c(=O)c(CCNC(=O)CC(C)(C)C)cc12	1.1	1.4
Cn1c(C(=O)Nc2ccc3c(c2)OCCO3)cc2sc(Cl)cc21	0.98	-0.85
CCN(CC)CCNc1ncnc2c1cnn2-c1cccc(C)c1	1	0.61
COc1ccc2nc(Nc3nc(C)cc(C(F)(F)F)n3)nc(C)c2c1	1.1	0.09
O=C(Nc1ccc(Cl)cc1)C1OC2OC3(CCCCC3)OC2C2OC3(CCCCC3)OC12 (stereo not drawn)	0.98	-0.31
CCOC(=O)N1CCC(Nc2c(N3CCN(C)CC3)c(=O)c2=O)CC1	1.1	0.95
